Source: PubChem BioAssay
miR-21 reporter: miR-21 reporter, rising signal; HeLa miR-21 FLuc reporter, luciferase, 48 h; Potency, µM (titrated, usually from 38.3 µM), for the others: at the top dose reporter change, positive = more light; 340,000 tested, under 10 active; AID 2288; active = well fitted rising curve with a large enough effect; inconclusive = small, poorly fitted or top-dose-only effect; inactive = no such curve, though single readings can be large or run the other way;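 further: % of control where 0% means no effect; miR-21 action dims this reporter so a rising signal means less miR-21 action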
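HeLa miR-21-FLuc reporter line, endogenous miR-21; 2000 cells/well in DMEM/10% FBS; compound titration up to ~40uM final, 48 h, 37 degree Celsius; luciferase detection reagent, 15 min lysis, CCD luminescence.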
Rango complex inh: Rango-importin beta binding inhibition; Q14974; Rango CFP/YFP FRET sensor + importin beta, 45 min; Potency, µM (highest dose often 92.2 µM), without a hit: at the top dose inhibition of complex formation; 340,000 tested, 0.031% active; active = rising FRET ratio curve, often small or poorly fitted; inconclusive = mostly compound fluorescence or quenching in the first reads; inactive = flat curves in all reads;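 further: potency means the concentration at half of the fitted maximal effect; 0% = DMSO wells and 100% = buffer wells lacking importin beta; nearly all actives have a fitted effect of over 15% in size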
Target sequence (Q14974 whole entry, looked up): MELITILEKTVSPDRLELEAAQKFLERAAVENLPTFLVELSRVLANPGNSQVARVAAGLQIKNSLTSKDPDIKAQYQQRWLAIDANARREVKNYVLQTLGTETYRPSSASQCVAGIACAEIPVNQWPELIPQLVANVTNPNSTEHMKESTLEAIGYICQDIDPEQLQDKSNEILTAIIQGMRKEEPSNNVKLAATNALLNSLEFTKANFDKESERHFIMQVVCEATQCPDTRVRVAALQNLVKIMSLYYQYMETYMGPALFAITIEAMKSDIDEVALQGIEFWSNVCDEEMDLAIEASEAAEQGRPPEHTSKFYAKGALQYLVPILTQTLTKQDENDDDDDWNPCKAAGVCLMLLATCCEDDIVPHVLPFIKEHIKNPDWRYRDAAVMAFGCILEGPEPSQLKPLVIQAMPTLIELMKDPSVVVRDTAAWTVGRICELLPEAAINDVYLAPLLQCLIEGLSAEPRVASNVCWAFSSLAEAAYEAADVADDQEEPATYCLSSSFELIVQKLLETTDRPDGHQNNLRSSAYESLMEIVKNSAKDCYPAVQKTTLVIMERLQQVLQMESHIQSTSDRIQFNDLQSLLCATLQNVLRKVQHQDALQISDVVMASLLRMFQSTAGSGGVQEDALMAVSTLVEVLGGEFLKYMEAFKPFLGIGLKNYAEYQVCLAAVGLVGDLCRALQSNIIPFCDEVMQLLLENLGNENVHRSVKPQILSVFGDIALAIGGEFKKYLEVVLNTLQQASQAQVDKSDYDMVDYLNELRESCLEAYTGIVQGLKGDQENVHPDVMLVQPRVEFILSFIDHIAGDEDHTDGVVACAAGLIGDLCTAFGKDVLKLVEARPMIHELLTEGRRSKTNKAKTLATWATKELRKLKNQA
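FRET biosensor Rango (snurportin 1 IBB between N-terminal EYFP and C-terminal Cerulean), 50 nM in PBS/1 mM DTT/0.02% Tween-20/0.1% BSA, preincubated 5 min RT with compound; 0.125 microM importin beta added, 45 min RT, CFP/YFP FRET ratio read.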
Rango dissoc inh: prevents RanGTP from dissociating the Rango-importin beta complex; O95149+P62826; Biochemical FRET Rango-importin beta, RanGTP-induced dissociation; Potency, µM (titrated, usually from 46.1 µM), inactives show at the highest dose activity change, negative = inhibition; 340,000 tested, 0.071% active; AID 540253; active means falling FRET ratio curve, often poorly fitted, with flat reads before Ran was added; inconclusive means other falling curves, or compound fluorescence or quenching; inactive means flat or rising ratio curve;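 further: potency means the concentration at half of the fitted maximal effect; % of control where 0% means no effect; nearly all actives have a fitted effect of over 45% in size; -100% = wells without RanGTP and RCC1; the record marks most hits as doubtful in a second field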
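Quantitative HTS using a FRET biosensor: 0.1 uM Rango, 0.25 uM importin beta, 0.6 uM Ran, 2 mM GTP, 0.2 uM RCC1 final, PBS with DTT, Tween-20 and BSA. Post-read taken 45 min after Ran addition.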
GLA inh pH 4.5: blocks human alpha-galactosidase A at pH 4.5. P06280. purified enzyme, 4-MU-alpha-Gal fluorescence, pH 4.5. activity change, negative = inhibition, % at 105 µM. 230,000 tested, under 10 active; inconclusive = small, poorly fitted or top-dose-only inhibition, or a rising curve; inactive = flat fitted curve, though single readings scatter; no compound was filed as active;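 further: 0% = full activity with enzyme and -100% = basal without enzyme; dose as in the result columns while the protocol names 77 µM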
Active calls of the source: *; ? = inconclusive; . = no result given; & = joins results of further samples.

Every second line gives: GLA inh pH 4.5, Rango dissoc inh, miR-21 reporter, Rango complex inh
> O=C1CC(=O)N(Cc2ccco2)C(=S)N1
    5, ?, -8%, ?
> CCCCS(=O)(=O)N1CCN(S(=O)(=O)c2cccs2)CC1
    ., -7%, -5%, 3.4%
> Oc1cccc(C=NN=C2c3ccccc3-c3ccccc32)c1
    ., -15%, ., 0.2%
> O=C(CCCc1nc2ccccc2s1)N1CCN(c2ccccc2)CC1
    -7, 0%, -12%, -1.6%
> CCCCOc1ccc(C(C)NC(=O)CCS(=O)(=O)Cc2ccc(Cl)cc2)cc1 (stereo unspecified)
    -2, 0%, -2%, -0.1%
> CCOc1ccc(CCNC(=O)COC(=O)COc2ccc(Br)cc2)cc1OCC
    ., -3%, 8%, 1.4%
> CCS(=O)(=O)N1CCCC(C(=O)Oc2ccc(Br)cc2)C1 (stereo unspecified)
    ., 2%, -5%, 0.9%
> S=C(NCc1cccs1)Nc1cccc(Cl)c1
    0, -13%, 1%, 4.6%
> CCOC(=O)N1CCN(C(=O)c2cc(-c3ccc(F)cc3)[nH]c2C)CC1
    1, 14%, -2%, -1.7%
> COc1ccc(C(CNC(=O)C2CC(=O)N(Cc3ccccc3)C2)N2CCCC2)cc1 (stereo unspecified)
    ., -3%, ., ?
> Cc1ccc(S(=O)(=O)NNC(=S)Nc2ccc(Cl)cc2)cc1
    -1, -7%, -11%, 2.7%
> Cc1cc(/C=C2/SC(=S)N(c3ccc([N+](=O)[O-])cc3)C2=O)c(C)n1-c1cccnc1
    -11, -11%, 7%, -5.9%
> COc1ccccc1C(=O)Nc1nnc(SCC(=O)NC2CCCC2)s1
    ., 1%, -64%, 4.3%
> CCN(CC)CCCC(C)NC(=O)c1c(NC(=O)c2ccccc2)sc2c1CCCC2 (stereo unspecified)
    ., -10%, 8%, -0.7%
> CCOC(=O)c1ccc(Nc2ncnc3ccc(C)cc23)cc1
    1, 4%, 0%, -1.2%
> COC(=O)[C@@]12OC[C@]34[C@H]([C@@H](O)[C@@H]1O)[C@@]1(C)C(=O)C(O[C@@H]5OC(CO)[C@@H](O)[C@@H](O)[C@@H]5O)=C[C@@H](C)[C@@H]1C[C@H]3OC(=O)[C@H](OC(=O)/C=C(\C)C(C)(C)OC(C)=O)[C@@H]24 (stereo partly specified)
    ., -8%, ., -2.4%
> CCOCC(=O)Nc1nnc(COC)s1
    -5, -6%, 2%, 2.3%
> O=C(/C=C/c1ccc(Cl)c(Cl)c1)Nc1cccnc1
    ., 16%, ., -2.0%
> CN(C)CCOC(c1ccccc1)c1ccccc1
    -4&3&0&5, -4%&-1%, 4%&-4%, -1.9%&-2.7%
> O=C(COC(=O)CSc1ccc2ccccc2c1)NC1CCCC1
    4, 12%, 1%, -0.2%

Going on with the list:
Every second line gives: GLA inh pH 4.5, Rango dissoc inh, miR-21 reporter, Rango complex inh
> O=c1oc2ccc(Cl)cc2nc1/C=C(\O)c1ccco1
    -8, -19%, -9%, -1.0%
> CC(=O)Oc1cc(O)c2c(=O)c(OC(C)=O)c(-c3ccc(OC(C)=O)c(OC(C)=O)c3)oc2c1
    ., -15%, ., ?
> COc1ccc(S(=O)(=O)NNC(=O)C(=O)NNc2ccccn2)cc1
    -5, 6%, 4%, 3.6%
> O=C(COC(=O)COc1ccccc1F)NCc1ccco1
    ., 7%, ., -0.5%
> CCOC(=O)c1c(S(=O)(=O)NCC(=O)NCc2ccccc2)c(C)n(C)c1C
    ., -9%, -2%&-2%, -2.4%
> O=C(NCc1ccccn1)c1ccc2nc(-c3ccco3)c(-c3ccco3)nc2c1
    0, ., 6%, .
> O=C(O)C1CC(=O)N(Cc2cccs2)C1 (stereo unspecified)
    -5, 1%, 0%, -0.5%
> COc1ccc(S(=O)(=O)N(C)c2ccc(C(=O)Nc3c(C)n(C)n(-c4ccccc4)c3=O)cc2)cc1
    ., -11%, -1%, -2.1%
> Cc1cccc(Cn2nc(C)cc2NC(=O)Cn2cc([N+](=O)[O-])cn2)c1
    1, 4%, 15%, -2.1%
> OCCNCc1cccc(OCc2ccccc2Cl)c1
    9, -9%, -22%, -0.6%
> CC1(C)CC(C#N)(N2CCOCC2)CCO1 (stereo unspecified)
    7, 5%, -4%, -7.4%
> CCc1cc2c(CN3CCN(CC)CC3)cc(=O)oc2cc1O
    ?, ?, -13%, ?
> CCCCCN(C(=O)CCC(=O)OCC(=O)c1ccc(C(C)(C)C)cc1)c1c(N)n(CCCC)c(=O)[nH]c1=O
    ., -4%, ., 2.8%
> CC1(C)CC(NC(=O)C23CCC(C)(/C(=N/O)C2)C3(C)C)CC(C)(C)N1 (stereo unspecified)
    1, -4%, 0%, 2.8%
> Cc1cccc(CSc2nnc3c(n2)[nH]c2ccccc23)c1
    -5, 0%, -3%, -1.1%
> O=C(c1ccc2nc(N3CCOCC3)sc2c1)N1CCN(C(=O)c2ccco2)CC1
    -6, -24%, -4%, -3.2%
> Cc1ccsc1C(=O)OCC(=O)c1cc2ccccc2o1
    -3, 0%, -34%, 9.7%
> O=C(N/N=C/c1cccnc1)C1CCCN(S(=O)(=O)c2ccccc2)C1 (stereo unspecified)
    1, 1%, -6%, -0.6%
> NC(=O)c1oc2ccccc2c1NC(=O)c1nc2ccccc2s1
    -10, 4%, -29%, -1.0%
> Cc1ccc(OCCn2c(CCCO)nc3ccccc32)cc1
    1, 12%, -12%, -0.8%

Later entries
Every second line gives: GLA inh pH 4.5, Rango dissoc inh, miR-21 reporter, Rango complex inh
> CCN(CC)CCCN1C=C2C(=O)C(C)(OC(=O)C3CCCC3)C(=O)C=C2C=C1c1ccsc1 (stereo unspecified)
    6&-13, ?, 3%, ?
> CCN(CC)S(=O)(=O)c1ccc(C)c(NC(=O)CNCc2ccccc2OC)c1
    ., 6%, 5%, 5.5%
> O=C(NC1CCN(C(=O)NCc2ccccc2)CC1)c1ccccc1
    ., 0%, 0%, -0.2%
> COc1ccc(NC(=O)CN(c2ccc(OC)cc2)S(=O)(=O)c2c(C)nn(C)c2C)cc1
    ., -3%, 2%, -0.2%
> Cn1cncc1C#Cc1c(C=O)[nH]c2ccccc12
    ., ?, ., ?
> CC(C)Cc1nnc(NC(=O)CCC(=O)N2CC(C)CC(C)C2)s1 (stereo unspecified)
    ., ?, 0%, ?
> COc1ccc(NC(=O)Nc2ccc3c(c2)C(=O)N([C@H](C)CO)C[C@H](C)[C@@H](CN(C)S(C)(=O)=O)O3)cc1
    ., -7%, ., 1.0%
> CC1(C)CC(=O)C(CC2CCCCC2=O)C(=O)C1 (stereo unspecified)
    1, 14%, -6%, 0.7%
> O=C(CSc1n[nH]c(-c2ccncc2)n1)c1ccccc1
    3, -4%, -4%, 0.5%
> CC[C@]12c3[nH]c4ccc(OC)cc4c3CCN1C(=O)C(CC(=O)NCc1ccc(OC)c(OC)c1)C[C@@H]2C(=O)N1CCN(C(=O)C2CC2)CC1 (stereo partly specified)
    ., 4%, ., 2.7%
> C=CCC(C#Cc1ccccc1)N(C)C (stereo unspecified)
    4, 14%, -1%, 2.0%
> O=[N+]([O-])c1ccc(Nc2ccc(N3CCOCC3)cc2)c([N+](=O)[O-])c1
    -15, 0%, 2%, -0.1%
> Cc1ccc(S(=O)(=O)N(C)CC(=O)OCC(=O)N2CCCC2=O)cc1
    -7, -14%, -4%, -1.6%
> COc1ccc(CCNC(=O)C(=O)NCCOc2ccccc2)cc1OC
    2, 10%, -5%, ?
> Cn1c(Cc2ccccc2)nnc1SCC(=O)Nc1ccc(N2CCOCC2)cc1
    ., 0%, 9%, -1.4%
> Cc1cc(NS(=O)(=O)c2ccc(NC(=O)CSc3nc4sc(C)c(C)c4c(=O)[nH]3)cc2)no1
    1, 9%, 0%, -0.5%
> Cc1cc(C(=O)N/N=C/c2ccc([N+](=O)[O-])s2)n[nH]1
    -14, -3%, ?, -1.0%
> c1ccc(Cc2nc3ccccc3n2Cc2ccccc2)cc1
    -8, -20%, -2%, -5.0%
> NNC(=O)c1ccc(Cn2cc(Cl)cn2)cc1
    -1, -15%, -1%, -0.2%
> Cc1ccc(NC(=O)c2ccc([N+](=O)[O-])o2)cc1S(=O)(=O)N1CCOCC1
    -6, 0%, ?, 2.8%

Looked up by compound from above, 7 records:
Every second line gives: GLA inh pH 4.5, Rango dissoc inh, miR-21 reporter, Rango complex inh
> O=C(COC(=O)CSc1ccc2ccccc2c1)NC1CCCC1
    4, 12%, 1%, -0.2%
> CCCCS(=O)(=O)N1CCN(S(=O)(=O)c2cccs2)CC1
    ., -7%, -5%, 3.4%
> CCOC(=O)c1c(S(=O)(=O)NCC(=O)NCc2ccccc2)c(C)n(C)c1C
    ., -9%, -2%&-2%, -2.4%
> COc1ccc(S(=O)(=O)N(C)c2ccc(C(=O)Nc3c(C)n(C)n(-c4ccccc4)c3=O)cc2)cc1
    ., -11%, -1%, -2.1%
> O=C(COC(=O)COc1ccccc1F)NCc1ccco1
    ., 7%, ., -0.5%
> OCCNCc1cccc(OCc2ccccc2Cl)c1
    9, -9%, -22%, -0.6%
> CCOC(=O)c1ccc(Nc2ncnc3ccc(C)cc23)cc1
    1, 4%, 0%, -1.2%

Further structures:
Every second line gives: GLA inh pH 4.5, Rango dissoc inh, miR-21 reporter, Rango complex inh
> O=C(Nc1ccccc1)O/N=C1\CCCCC1c1ccc([N+](=O)[O-])cc1[N+](=O)[O-] (stereo unspecified)
    -13, 8%, -13%, -2.9%
> FC(F)(F)c1ccc2nnc(-c3c(Cl)cccc3Cl)n2c1
    -2, -5%, -2%, 14%
> COc1ccc(NC(=O)CN(C)S(=O)(=O)c2cccc3cccnc23)cc1
    -2, 10%, -2%, -2.7%
> COc1cc(-c2nc(CN3CCN(CC(C)C)C(=O)[C@@H]3C)c(C)o2)ccc1F
    -7, -20%, -1%, -0.2%
> CCc1ccc2c(c1)/C(=C/C(=O)c1cccs1)C(=O)N2
    1, 0%, ?, 8.4%
> CCOC(=O)N1CCN(C(=O)CN(C)S(=O)(=O)c2ccc3c(c2)c(=O)n(C)c(=O)n3C)CC1
    -3, 14%, -1%, -0.6%
> CC(O)CC(C(=O)NNc1ccccc1)C(=O)NNc1ccccc1 (stereo unspecified)
    -6, -10%, 9%, 0.2%
> Cc1ccc(SCCC(=O)NC(C(C)C)C(C)C)cc1
    -4, 21%, -6%, 1.9%
> CC(NC(=O)c1cccnc1)C(=O)O (stereo unspecified)
    ., 2%, -6%, -1.1%

5 entries from above in another layout.
mol | GLA inh pH 4.5 | Rango dissoc inh | miR-21 reporter | Rango complex inh
O=C(Nc1ccccc1)O/N=C1\CCCCC1c1ccc([N+](=O)[O-])cc1[N+](=O)[O-] (stereo unspecified) | -13 | 8% | -13% | -2.9%
COC(=O)[C@@]12OC[C@]34[C@H]([C@@H](O)[C@@H]1O)[C@@]1(C)C(=O)C(O[C@@H]5OC(CO)[C@@H](O)[C@@H](O)[C@@H]5O)=C[C@@H](C)[C@@H]1C[C@H]3OC(=O)[C@H](OC(=O)/C=C(\C)C(C)(C)OC(C)=O)[C@@H]24 (stereo partly specified) | . | -8% | . | -2.4%
CCOCC(=O)Nc1nnc(COC)s1 | -5 | -6% | 2% | 2.3%
O=C(CSc1n[nH]c(-c2ccncc2)n1)c1ccccc1 | 3 | -4% | -4% | 0.5%
Cc1ccc(S(=O)(=O)N(C)CC(=O)OCC(=O)N2CCCC2=O)cc1 | -7 | -14% | -4% | -1.6%

This is a subset. The share of hits here may be higher or lower than overall.
